Screens deposited in PubChem BioAssay by several laboratories.
LANA-H2A inh – blockers of LANA interaction with H2A/H2B – biochemical, FP readout, HTS, primary screen; Protein LANA1 (Human herpesvirus 8 type P (isolate GK18)), Q9QR71; cell-free LANA-H2A/H2B peptide, fluorescence polarization; inhibition, % (no concentration beside the values); 320,000 compounds, 0.6% hits; AID 2629, 2010; in the data active = inhibition mostly above about 10%, no sharp cut-off; inactive = mostly below about 6.7%;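 also: stock transfer was 7.5 nL into about 10 µL; 0% = median of vehicle wells and 100% = median of positive control wells; one replicate is shown; the record names a cut of 25% in any replicate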
Calb FLC – C. albicans growth inhibition with fluconazole, primary screen, CaCi-2 strain, Alamar Blue fluorescence; C. albicans CaCi-2 (fluconazole-resistant clinical isolate) + fluconazole, 48 h; growth inhibition, % (concentration not given with the values); 300,000 compounds, 0.57% hits;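 active = most replicates above 75%; inconclusive = exactly half above 75%; inactive = most below 75%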;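 also: all wells also contain fluconazole at 8 µg/ml as a sub-toxic cotreatment; 0% = median of DMSO wells and 100% = median of geldanamycin control wells; wells of about 8 µL received 7.5 nL stock; the first replicate is given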
Beta apoptosis – inhibitors of cytokine-induced beta cell apoptosis, primary screen, luminescence | INS-1E cytokine-induced death, ATP luminescence, 48 h; percent of positive-control rescue, neutral wells zero | 300,000 compounds, 0.8% hits | protection from apoptosis, % (no concentration beside the values);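 active = all replicates at 75% or more, or half of them and the mean; inconclusive = half reach 75% but not the mean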;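 also: 0% = cytokine-treated negative control wells and 100% = positive control rescue; higher means more ATP so stronger rescue from cytokine killing; wells of about 40 µL received 100 nL stock; the first replicate is given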
Bfl-1 A1 inh – caspase 3/7 activation in MEF A1-2A-BIM cells, primary screen, A1 inhibitor project, cell-based, luminescence, HTS; Caspase-Glo 3/7 luminescence, 3 h; percent of clofoctol response, vehicle zero; caspase activation, % (test concentration not listed); 330,000 compounds, 0.066% hits; AID 2462, 2010;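 active = over half of replicate activation scores above 10%, or exactly half above 10 with the replicate mean above 10; inconclusive = replicate mean below 10 yet half the replicates above 10; inactive = over half of replicates below 10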;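 also: wells of about 30 µL received 50 nL stock; many hits fall short of the cut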
Ecoli rRNA inh – reduced GFP signal of wild-type E. coli, primary screen, bacterial rRNA inhibitor project, GFP/RFP fluorescence, OD600, single point | E. coli WT GFP vs humanized-ribosome RFP mutants, 24 h; hits give low values; DMSO median 0, no signal -100 | 350,000 compounds, 1.6% hits | GFP signal change (wild-type ribosome), % (no concentration beside the values) | AID 720706, 2013;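 active = significant combined selectivity score with lowered wild-type GFP, culture density cut under 30%, mutant RFP and density less affected; inactive = any of these conditions unmet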; also: one replicate is shown; some compounds called inactive have numbers as strong as hits
T cruzi repl – inhibitors of intracellular T. cruzi growth, primary screen, luminescence, NIH3T3 host cells. 300,000 compounds, 1.4% hits. T. cruzi beta-gal in NIH3T3, 90 h. inhibition, % (no concentration beside the values);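 active = mean inhibition across valid replicates above about 55%, limit read from the data; inconclusive = mean below that limit but half or more replicates reach it; inactive = mean below it, under half of replicates reach it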;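 also: signal also drops with host cell toxicity which is not excluded here; 0% = plate median of DMSO wells and 100% = zero luminescence signal; higher percent means less beta-gal luminescence so fewer parasites; stock transfer was 50 nL into about 50 µL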
ALR inh – inhibitors of human ALR sulfhydryl oxidase, primary screen, biochemical, H2O2 detection, HRP-luminol luminescence, single point; purified ALR, DTT oxidation; 290,000 compounds, 3.8% hits; FAD-linked sulfhydryl oxidase ALR (Homo sapiens), P55789; inhibition, % (concentration not given with the values);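 active = mean and each replicate at 75% or more; inconclusive = only one of the two met; inactive = neither met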;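 also: stock transfer was 7.5 nL into about 7.5 µL; 0% = neutral wells and 100% = wells with inactivated enzyme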
Target sequence (P55789 whole entry, looked up): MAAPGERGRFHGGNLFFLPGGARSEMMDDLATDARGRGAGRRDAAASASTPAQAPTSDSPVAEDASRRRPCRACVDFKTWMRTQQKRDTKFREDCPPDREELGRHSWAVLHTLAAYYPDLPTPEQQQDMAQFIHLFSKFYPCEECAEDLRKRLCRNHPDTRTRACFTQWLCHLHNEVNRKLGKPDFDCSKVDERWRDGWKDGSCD
Beta2AR agonist – beta2AR agonists driving receptor internalization, primary screen, cell-based, FAP fluorogen, flow cytometry; AID 504454, 2011; response, % (no concentration beside the values); Am2.2-beta2AR cells; reference of the scale not given here; 340,000 compounds, 0.43% hits; Beta-2 adrenergic receptor (Homo sapiens), P07550;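 active = response above a set limit, near 3 SD of response in nonfluorescent compounds, cut at about 42% in these data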;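 also: stock transfer was 100 nL into about 11 µL; a reference agonist was the positive control; negative values mostly stem from fluorescent compounds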
Target sequence (P07550 whole entry, looked up): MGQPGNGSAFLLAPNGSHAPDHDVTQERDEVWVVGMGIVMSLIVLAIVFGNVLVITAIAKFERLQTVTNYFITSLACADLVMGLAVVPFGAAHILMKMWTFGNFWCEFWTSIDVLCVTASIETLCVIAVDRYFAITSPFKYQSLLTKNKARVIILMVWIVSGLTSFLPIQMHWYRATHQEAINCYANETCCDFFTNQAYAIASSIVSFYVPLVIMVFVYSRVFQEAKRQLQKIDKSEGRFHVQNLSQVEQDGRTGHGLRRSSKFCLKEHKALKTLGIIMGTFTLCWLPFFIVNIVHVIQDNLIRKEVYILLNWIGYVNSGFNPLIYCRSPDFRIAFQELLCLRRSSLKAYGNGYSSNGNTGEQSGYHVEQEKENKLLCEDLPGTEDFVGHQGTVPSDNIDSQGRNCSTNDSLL
Ecoli rRNA inh OD600 – also measured in Ecoli rRNA inh; calls as there; OD600 change, %; measured here: OD600 growth;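 optical density of the mix in the first replicate; 0 = DMSO median and -100 = no signal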
Ecoli rRNA inh RFP – second read-out of Ecoli rRNA inh, no call of its own (marks repeat the call); RFP signal change, %; measured here: RFP humanized mutant strains;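 first replicate; 0 = DMSO median and -100 = no signal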
Active calls of the source: *; u = inconclusive; x = not tested or not shown. These rows are one share of the data; rates above refer to the full screens.

SMILES | LANA-H2A inh | Calb FLC | Beta apoptosis | Bfl-1 A1 inh | Ecoli rRNA inh | Ecoli rRNA inh OD600 | Ecoli rRNA inh RFP | T cruzi repl | ALR inh | Beta2AR agonist
O=C(NNC(=S)Nc1ccc(Cl)c(Cl)c1)c1cccc([N+](=O)[O-])c1 | -4.6 | -2 | 4 | 0.2 | -53 | -75 | -16 | 2 | 98* | 7
CCOC(=O)c1sc(NC(=O)c2ccc(OC)cc2)nc1C | -1.2 | -5 | x | 1.1 | 23 | 20 | 1.8 | -40 | -1 | 3
O=C(Nc1ccc(O)cc1)C1CC=CCC1 (configuration not stated) | 3.9 | -12 | -10 | -0.3 | x | x | x | -11 | 99* | 2
Cc1nn(CC(=O)O)c(C)c1C | -0.6 | 5 | -8 | 1.1 | x | x | x | -11 | -3 | 11
Cc1cccc(C)c1NC(=O)c1cc2c(=O)c3ccccc3oc2nc1C(F)(F)F | -6.4 | 3 | 30 | x | x | x | x | 6 | -6 | 13
CCOC(=O)c1cccc(NC(=O)c2ccc(N(C)C)cc2)c1 | -7.3 | -12 | 3 | -1.1 | x | x | x | 0 | 5 | -5
O=C(O)c1cc2cc(OCc3ccccc3)ccc2[nH]1 | 5.2 | 12 | -7 | -0.9 | x | x | x | -13 | -4 | -5
CCC(NS(=O)(=O)c1ccc2c(c1)NC(=O)C(C)C(=O)N2)c1cccs1 (configuration not stated) | -12 | -6 | 1 | 0.5 | -5 | 1 | -1.6 | -6 | -4 | 1
COCc1nnc(SCC(=O)Nc2cccc(Cl)c2C)n1-c1ccccc1 | 0.6 | -2 | 9 | 1.2 | x | x | x | -4 | 3 | -3
Cc1sc(NC(=O)c2ccccc2)c(C(c2ccc(Cl)cc2)N2CCN(CCO)CC2)c1C (configuration not stated) | -7.9 | 61 | -6 | 0.0 | -52 | -76 | -28 | 2 | -7 | 6
CCC(NC(=O)c1ccc(C#CC2(O)CCCCC2)cc1)C(=O)O (configuration not stated) | 2.6 | 3 | -2 | -0.1 | 3 | 7 | -0.9 | -24 | -23 | 3
Cc1cc(C(=O)N2CCN(c3ncccn3)CC2)cs1 | -6.6 | 30 | 0 | 0.1 | x | x | x | -8 | -3 | -9
CC(=O)Nc1ccc(S(=O)(=O)N2CCn3cccc3C2C)cc1 (configuration not stated) | -4.9 | x | -3 | 0.2 | 5 | 7 | 0.1 | x | -1 | 6
C=CCn1nc(-c2ccccc2)c2c(C)onc2c1=O | 0.0 | -16 | -1 | 0.7 | 2 | 0 | 0.6 | -11 | -2 | 7
CC1CCN(c2nc3c(c(=O)n(C)c(=O)n3C)n2Cc2ccccc2)CC1 | 0.8 | 5 | 1 | 0.3 | -13 | -7 | 1.8 | 19 | 19 | -3
CC(CC(=O)Nc1ccc(-c2ccno2)cc1)n1cccn1 (configuration not stated) | -3.1 | -1 | 0 | 0.3 | 6 | 17 | -0.1 | -16 | -9 | -3
Nc1nc2c(nc(SCc3ccccc3Br)n2[C@@H]2O[C@H](CO)[C@@H](O)[C@H]2O)c(=O)[nH]1 | 3.6 | 2 | -3 | -1.0 | 9 | 7 | 0.2 | -6 | 10 | -7
O=C(CCN1C(=O)C2CCCCC2C1=O)N1CCN(S(=O)(=O)c2cccc(F)c2)CC1 (configuration not stated) | -0.1 | -4 | 2 | 1.8 | 14 | 18 | 1.4 | -7 | 1 | -3
COC(=O)C1=C(C)N(Cc2ccccc2)C(=S)N[C@H]1c1cccc(C(F)(F)F)c1 | 3.6 | x | 1 | -0.4 | -22 | -34 | 3.0 | x | -5 | 6
COc1ccc(CNCCC2(Cc3ccccc3)CC(C)N(C)CC2C)cc1OC (configuration not stated) | 0.7 | 4 | 3 | -0.1 | 17 | 16 | 4.1 | 32 | -18 | 6
CCn1cc([N+](=O)[O-])c(C(=O)Nc2ccc3c(c2)OCCO3)n1 | 2.5 | -9 | 1 | -3.6 | x | x | x | 1 | -18 | -10
O=C(NCCc1ccccc1)C(=O)NCC1OCCN1S(=O)(=O)c1ccc2c(c1)OCCO2 (configuration not stated) | -3.0 | 1 | 0 | 0.2 | -6 | -14 | -2.7 | 12 | -12 | -5
C=CCSc1nnc(-c2cc3c(-c4ccccc4)nn(C)c3s2)n1C | -2.7 | -6 | 9 | -0.2 | x | x | x | 10 | 3 | 5
CC(=O)Nc1ccc(S(=O)(=O)N2CCN(C(=O)c3ncoc3-c3ccc(F)cc3)CC2)cc1 | -3.7 | 0 | x | -0.3 | x | x | x | 10 | 7 | x
Cc1onc(-c2c(Cl)cccc2Cl)c1C(=O)NCCCN1CCOCC1 | -0.6 | 5 | -2 | -1.2 | x | x | x | 7 | -2 | -8
Cc1ccc(C(=O)Nc2ccc(S(=O)(=O)N3CCc4ccccc43)cc2)o1 | -11 | -1 | 7 | -0.6 | x | x | x | 9 | -9 | 4
Cc1ccn2c(=O)nc(SCC(=O)N3CCCC3)nc2c1 | x | 3 | -1 | 0.6 | 6 | 6 | 2.7 | -9 | x | 13
CC1=NN(c2ccccc2)C(=O)/C1=C\C=C1/N(C)c2ccccc2C1(C)C | -14 | 33 | 21 | -0.2 | 12 | 10 | 59 | 12 | 11 | 12
Cn1ncc(C#N)c1NC(=O)C1CC(c2ccccc2Cl)=NO1 (configuration not stated) | -4.0 | 4 | -3 | 0.5 | 6 | 7 | -0.4 | -5 | -6 | x
COc1ccc(C(O)Cn2c(=N)n(CCCN(C)C)c3ccccc32)cc1 (configuration not stated) | 3.4 | -5 | -4 | 1.0 | x | x | x | 6 | -4 | 0
CCCC(=O)Nc1nnc(SCC)s1 | -0.9 | -4 | -8 | 0.0 | x | x | x | -14 | 17 | -4
COc1ccc(OC)c(-n2nnnc2SCC(=O)NCc2ccc3c(c2)OCO3)c1 | -1.1 | -27 | -17 | 0.7 | x | x | x | -13 | -3 | -6
Cc1cccc(Cn2nc(C)cc2NC(=O)CCCn2ccc([N+](=O)[O-])n2)c1 | -0.4 | -3 | -1 | 0.4 | 7 | 1 | 1.9 | -1 | 9 | 2
COc1cccc(CNC(=O)CN2C(=O)CSc3ccc(S(=O)(=O)N4CCCC4)cc32)c1 | -1.4 | -3 | -8 | 0.6 | -3 | -2 | 3.6 | -3 | -2 | 11
COc1cccc(CN2CCN(C(=O)c3cccc4ccccc34)CC2)c1 | -1.9 | -47 | -4 | 0.3 | -11 | -10 | 1.3 | -1 | -9 | -4
COc1cc(NC(=O)C2CCCN(c3ncnc4c3nc3n4CCCCC3)C2)cc(OC)c1OC (configuration not stated) | -2.5 | 11 | 7 | -0.2 | -26 | -17 | -11 | 4 | -3 | 1
COc1ccc(-c2ncnc(C(F)(F)F)c2-c2csc(C)n2)c(O)c1 | 2.2 | 0 | -3 | 1.1 | 10 | 5 | 5.8 | -12 | 13 | 17
COc1ccc(CCNC(=O)c2cnc3ccccn3c2=O)cc1 | -7.5 | 2 | 2 | x | -6 | -7 | -4.4 | -11 | -13 | -4
Cc1ccc(Cl)c(OCC(=O)NCc2ccco2)c1 | -2.9 | u | -1 | 1.2 | x | x | x | 3 | 0 | 2
COc1cc(C#Cc2c(-c3cncn3C)n(C)c3ccc(Br)cc23)cc(OC)c1 | -1.1 | x | 3 | 0.0 | 13 | 14 | 0.6 | x | -7 | 7
COc1ccc(N2C(=O)C(CC(N)=O)N(NC(=O)CCc3ccccc3)C2=O)cc1 (configuration not stated) | -2.6 | -3 | -5 | 0.1 | 4 | 16 | -1.3 | 5 | -2 | 6
CCCOc1ccc(-c2csc(N)n2)cc1[N+](=O)[O-] | -1.0 | -10 | 1 | -1.1 | -5 | -9 | -3.1 | 2 | 99* | -4
Nc1ccc(Br)cc1Br | -5.9 | 8 | -2 | 0.1 | 6 | 11 | 0.0 | 25 | -13 | -3
O=C1Cc2ccccc2C(=O)N1Cc1ccccc1 | 6.6 | -1 | -1 | 0.4 | x | x | x | x | -12 | -7
O=C(CCCC(=O)n1cnc2ccccc21)n1cnc2ccccc21 | 2.1 | 4 | -9 | 0.9 | x | x | x | -13 | -36 | -1
COc1ccc(NC(=O)CN2C(=O)C(C)SC(C)C2=O)c(OC)c1 (configuration not stated) | 3.0 | -5 | -2 | 0.1 | 15 | 11 | 1.3 | 0 | -18 | 0
CN1CCN(c2ccc(CNS(=O)(=O)c3ccccc3)cc2)CC1 | 1.3 | -17 | -9 | -0.1 | x | x | x | 15 | 2 | -3
C=CCNC(=O)c1onc(CSc2ccccc2)c1C(=O)NCC=C | -5.5 | 7 | 3 | 0.0 | x | x | x | -20 | x | -5
COc1ccc(Cl)cc1NC(=O)C(C)Sc1nnc(C2CC2)n1C1CC1 (configuration not stated) | 1.1 | x | -3 | 1.0 | -9 | -15 | -6.0 | x | -1 | -5
CC1(C)CC(=O)c2cc(OCC(=O)NCC3CCCO3)ccc2O1 (configuration not stated) | 0.2 | -6 | -5 | -0.5 | x | x | x | -10 | 4 | 2
Cc1cc(/C=C2\SC(=O)NC2=O)c(C)n1-c1ccc(N(C)C)cc1 | 1.0 | -7 | 6 | -0.3 | 1 | 5 | -0.8 | -2 | x | 9
CCCn1c2ccccc2c2cnn(CC(=O)N(CC)CC)c(=O)c21 | -3.1 | 22 | -5 | 0.3 | -3 | -2 | -1.6 | 0 | x | -11
Cc1cccc(OCCSc2nc(N)cc(N)n2)c1 | -4.8 | 3 | 2 | -0.1 | -2 | 5 | -5.8 | -9 | 36 | 3
COc1ccc2nc(C)cc(Nc3ccc(N4CCN(C)CC4)cc3)c2c1 | -2.7 | -4 | 73 | 0.2 | 1 | -4 | -4.8 | 45 | 96* | 19
COc1ccc(C(=O)CSc2n[nH]c(=O)[nH]c2=O)cc1 | 3.7 | -9 | -4 | 1.0 | 1 | 0 | -4.2 | -1 | x | -7
Cc1ccc(C2=CSC3=NS(=O)(=O)CCN23)cc1C | -0.9 | -1 | 4 | 0.3 | x | x | x | 0 | x | 3
